Screens as filed in PubChem BioAssay.
BJeLR viab HTS: BJeLR cell viability loss, primary screen, luminescence, CellTiterGlo ATP; BJeLR fibroblasts viability, 48 h; HRASV12, hTERT and SV40 LT/ST transformed; viability loss activity score, % (concentration not given with the values); 0.64% of 30,000 active; AID 2275, 2010; in the data active = viability loss activity score above about 50%; about a fifth of its hits are not listed in these tables;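 also: higher score means fewer live cells and less ATP luminescence; stock transfer was 50 or 100 nL into about 30 µL; 0% = vehicle wells and 100% = a reference killing control; one replicate is shown; the record names a cut of 85%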
A1 inhib: inducers of caspase activity in MEF A1-2A-BIM cells, primary screen, A1 inhibitor project, cell-based, CaspaseGlo luminescence | 0.51% of 21,000 active | caspase activation, % (concentration not given with the values) | caspase-Glo luminescence, 3 h; percent of clofoctol signal, DMSO as zero;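 active = most replicate scores above 10, or exactly half above 10 with mean activity above 10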;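 also: effector caspase 3 and 7 activity cleaving a DEVD luciferin substrate; 50 nL library stock added to about 30 µL; numbers are from one replicate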
* hit, by the source's call; . = not tested or not shown. A portion of the library; rates above refer to the full screens.

Preview:
Structure	BJeLR viab HTS	A1 inhib
CC(C)(C)n1ncc2c(=O)n(Cc3cccc4ccccc34)cnc21	0.2	-0.3
C[C@H]1CN([C@@H](C)CO)C(=O)c2cccc(NC(=O)c3ccc(-c4nccs4)cc3)c2O[C@@H]1CN(C)Cc1ccc(Cl)c(Cl)c1	-5.1	.
Cc1sc(N)nc1C12CC3CC(CC(C3)C1)C2	-3.5	0.0
CCCNC(=O)OCN1C(=O)c2ccc(N)cc2C1=O	-3.4	0.1

The list itself, previewed entries included:
Structure	BJeLR viab HTS	A1 inhib
CC(C)(C)n1ncc2c(=O)n(Cc3cccc4ccccc34)cnc21	0.2	-0.3
C[C@H]1CN([C@@H](C)CO)C(=O)c2cccc(NC(=O)c3ccc(-c4nccs4)cc3)c2O[C@@H]1CN(C)Cc1ccc(Cl)c(Cl)c1	-5.1	.
Cc1sc(N)nc1C12CC3CC(CC(C3)C1)C2	-3.5	0.0
CCCNC(=O)OCN1C(=O)c2ccc(N)cc2C1=O	-3.4	0.1
Cn1nc(C(=O)NCCN(Cc2ccco2)C2CCCC2)c2c1-c1ccccc1OC2	-3.2	-0.7
CSc1cccc(NC(=S)NN(C)C)c1	-1.9	0.1
CCOC(=O)C1(O)c2ccccc2NC(=O)N1C (centres undefined)	-4.0	0.1
CCCc1c(OCCCCc2nn[nH]n2)ccc(C(C)=O)c1O	2.3	0.2
C[C@H]1CN([C@@H](C)CO)C(=O)c2cccc(NS(=O)(=O)c3ccccc3)c2O[C@H]1CN(C)Cc1ccc(C(F)(F)F)cc1	8.2	.
C[C@@H]1CN([C@H](C)CO)C(=O)c2cc(NC(=O)C3CC3)ccc2O[C@H]1CN(C)Cc1ccc(Cl)c(Cl)c1	1.1	-0.4
COc1ccc(S(=O)(=O)N(C)C[C@@H]2Oc3ccc(NC(=O)NC(C)C)cc3C(=O)N([C@@H](C)CO)C[C@@H]2C)cc1	0.6	-0.3
Cc1noc(C)c1NC(=O)N(C)C[C@H]1Oc2c(NC(=O)C3CCCCC3)cccc2C(=O)N([C@H](C)CO)C[C@H]1C	4.1	.
C[C@@H]1CN([C@H](C)CO)C(=O)c2cc(NC(=O)C3CCCCC3)ccc2O[C@H]1CN(C)Cc1ccc(-c2ccccc2)cc1	0.0	-0.4
COC(=O)C1C(c2ccc(OC)cc2)C(C(=O)OC)S(=O)(=O)CS1(=O)=O (centres undefined)	-3.4	-0.2
CCC(CC)NC(=O)Cc1ccc(Cl)cc1	3.6	1.3
Nc1nccc(-c2ccc(NC(=O)Nc3ccccc3)cc2)n1	2.4	-5.8
CC(C)NC(=O)N(C)C[C@@H]1Oc2ccc(NS(=O)(=O)c3cn(C)cn3)cc2C(=O)N([C@@H](C)CO)C[C@H]1C	-0.4	-0.1
C[C@@H]1CN([C@H](C)CO)C(=O)c2cccc(NC(=O)C3CCCCC3)c2O[C@@H]1CN(C)C(=O)Nc1ccccc1	-2.2	.
C[C@H]1CN([C@@H](C)CO)C(=O)c2cc(NC(=O)Nc3cccc4ccccc34)ccc2O[C@H]1CN(C)Cc1ccncc1	2.2	-0.6
C[C@@H]1CN([C@@H](C)CO)C(=O)c2cc(NC(=O)CCC(F)(F)F)ccc2O[C@@H]1CN(C)C(=O)Nc1ccc(F)cc1	-4.6	0.4
COc1ccccc1-c1coc2cc(OC)c(OC)c(OC)c2c1=O	-9.5	0.3
CC(C)(C)NC(=O)c1cccc(NC(=O)CCC(=O)O)c1	5.3	0.9
Cc1ccc(-c2nn(C)c(=O)c3ccccc23)cc1S(=O)(=O)N1CCOCC1	0.3	-0.9
COc1ccc(CN(C)C[C@H]2Oc3ccc(NC(=O)Nc4cccc5ccccc45)cc3C(=O)N([C@@H](C)CO)C[C@@H]2C)cc1	3.0	-0.5
C[C@@H]1CN([C@@H](C)CO)C(=O)c2cccc(NC(=O)Nc3ccc(C(F)(F)F)cc3)c2O[C@@H]1CN(C)CC1CC1	-3.0	.
O=C(Oc1ccc(Cl)cc1)c1csc(C2COc3ccccc3O2)n1 (centres undefined)	3.3	-2.5
CCOC(=O)C1CCCN(CCP(=O)(c2ccccc2)c2ccccc2)C1 (centres undefined)	4.7	.
CC(=O)NC(=O)C1C=C2c3ccccc3C=CC2OC1=Nc1ccc(C)cc1 (centres undefined)	5.2	2.1
CCN1C(=O)c2cccc3c(NC(=O)c4ccc(S(=O)(=O)N5CCCCC5C)cc4)ccc1c23 (centres undefined)	-0.1	0.4
COC(C)(C)CCCC(C)C/C=C/C(C)=C/C(=O)O (centres undefined)	-8.1	0.3
CCCCc1c(C)c(C#N)c2nc3ccccc3n2c1NCCN1CCOCC1	-5.4	-0.2
N#Cc1c(NC(=O)/C=C/C(=O)O)sc2c1CCC2	0.5	0.3
Cc1ccc(Nc2nc(N3CC(C)OC(C)C3)nc3c2cnn3C)cc1Cl (centres undefined)	-3.5	.
Cc1ccc(S(=O)(=O)Nc2cccc3c2O[C@H](CN(C)S(=O)(=O)c2ccc(F)cc2)[C@@H](C)CN([C@@H](C)CO)C3=O)cc1	-1.6	.
CCCC(C)C(=O)Nc1ccc(NC(C)=O)cc1 (centres undefined)	4.3	0.6
O=C(Nc1csc(-c2cccs2)n1)Nc1ccc(F)cc1F	2.2	-1.1
CCN=C1SC(CC(=O)Nc2sc3c(c2C(=O)OCC)CCCC3)C(=O)N1CC (centres undefined)	-7.5	0.0
COc1ccc(NC(=O)Nc2ccc3c(c2)C(=O)N([C@@H](C)CO)C[C@@H](C)[C@H](CN(C)S(=O)(=O)c2cn(C)cn2)O3)cc1	2.8	0.0
COc1ccc(S(=O)(=O)N(C)C[C@H]2Oc3ccc(NC(=O)c4ccncc4)cc3C(=O)N([C@H](C)CO)C[C@H]2C)cc1	5.4	-0.1
COC(=O)C1=C(C)NC2=C(C(=O)CCC2)C1c1ccccc1 (centres undefined)	0.5	0.8
COc1cc(C(=O)NCCC(=O)NC2CCC(C)CC2)cc(OC)c1OC (centres undefined)	6.2	2.5
COc1ccccc1N1CCN(C(=O)CN(c2ccccc2OC)S(C)(=O)=O)CC1	-14.4	1.0
Cc1noc(C)c1NC(=O)N(C)C[C@H]1Oc2ccc(NC(=O)C3CCCCC3)cc2C(=O)N([C@@H](C)CO)C[C@@H]1C	3.0	-0.4
CC(=O)c1ccc(O)c(CC=C(C)C)c1	-0.6	-0.3
O=C1c2[nH]nc(-c3ccccc3O)c2C(c2ccccc2)N1Cc1ccco1 (centres undefined)	0.5	0.3
S=C(NC(Cc1ccccc1)c1ccccc1)NC1CC2C=CC1C2 (centres undefined)	8.9	.
CCOc1ccc2sc(C=NC(C)CC)c(O)c2c1 (centres undefined)	-2.3	-1.7
C[C@@H]1CN([C@H](C)CO)C(=O)c2cccc(NS(=O)(=O)c3ccccc3)c2O[C@H]1CN(C)C(=O)Nc1cccc2ccccc12	0.1	.
C[C@@H]1CN([C@@H](C)CO)C(=O)c2cc(NC(=O)CCC(F)(F)F)ccc2O[C@@H]1CN(C)Cc1ccncc1	0.7	-0.2
N#Cc1cc2c(=O)n3ccccc3nc2n(C2CCCC2)c1=N	2.7	-0.3
CC(=O)OC1CCC2C3CCc4cc(O)ccc4C3CCC12C (centres undefined)	-0.7	1.1
CCOC(=O)c1cc(-c2csc(Nc3ccccc3Cl)n2)on1	5.1	-2.8
Cc1ccc(S(=O)(=O)Nc2ccc3c(c2)C(=O)N([C@@H](C)CO)C[C@@H](C)[C@H](CN(C)CC2CCCCC2)O3)cc1	3.4	-0.2
COc1ccc(NC(=O)N(C)C[C@H]2Oc3c(NC(=O)Nc4ccc5c(c4)OCO5)cccc3C(=O)N([C@@H](C)CO)C[C@H]2C)cc1	-5.7	.
Cc1ccc(CCNC(=O)C2(NS(=O)(=O)c3cccc4cccnc34)CCCCC2)cc1	2.1	0.3
C[C@@H]1CN([C@H](C)CO)C(=O)c2cccc(NS(=O)(=O)c3ccccc3)c2O[C@H]1CN(C)Cc1ccc(Cl)c(Cl)c1	3.1	.
C[C@@H]1CN([C@H](C)CO)C(=O)c2cc(NC(=O)Nc3cccc4ccccc34)ccc2O[C@H]1CN(C)S(=O)(=O)c1cn(C)cn1	0.9	0.5
CCCCc1ccc(NC(=O)N=S2CCN(C(=O)c3ccc(Cl)cc3)CC2)cc1	6.4	-1.8
Cc1ccc(C(C(=O)NC2CCCCC2)N(C)c2ccccc2)cc1 (centres undefined)	12.2	.
Cc1ccc(O)c(C2=Nc3ccccc3N=C(C(F)(F)F)C2)c1	4.0	-1.1

Carrying on:
Structure	BJeLR viab HTS	A1 inhib
C[C@H]1CN([C@@H](C)CO)C(=O)c2cc(NC(=O)CCN3CCOCC3)ccc2O[C@H]1CN(C)S(=O)(=O)c1ccc(Cl)cc1	0.8	1.0
C[C@@H]1CN([C@H](C)CO)C(=O)c2cc(NC(=O)NC3CCCCC3)ccc2O[C@H]1CN(C)Cc1ccncc1	4.7	0.0
O=C(NC(=O)N1CCCCC1)c1ccc(-c2csnn2)cc1	-2.9	0.8
C[C@@H]1CN([C@H](C)CO)C(=O)c2cc(NC(=O)Cc3ccccc3)ccc2O[C@H]1CN(C)Cc1ccc(Cl)c(Cl)c1	1.9	0.5
Nc1cccc(-c2nc3ccccc3o2)c1	-1.4	-6.1
COc1ccc(S(=O)(=O)Nc2ccc3c(c2)C(=O)N([C@@H](C)CO)C[C@H](C)[C@@H](CN(C)Cc2ccc4c(c2)OCO4)O3)cc1	5.0	-0.8
C[C@@H]1CN([C@H](C)CO)C(=O)c2cc(NC(=O)C3CC3)ccc2O[C@@H]1CN(C)S(=O)(=O)c1ccc(F)cc1	3.1	-0.6
O=C(Cn1cc(SCc2ccccc2)c2ccccc21)N1CCCC1	0.2	-2.0
O=C(c1ccco1)N1CCN(Cc2ccc3c(c2)OCO3)CC1	1.1	0.1
C[C@@H]1CN([C@H](C)CO)C(=O)c2cccc(NC(=O)Nc3ccc(C(F)(F)F)cc3)c2O[C@H]1CN(C)S(=O)(=O)c1ccccc1	-6.5	.
CCNc1nc(OCC)nc(N2CCC(Cc3ccccc3)CC2)n1	2.0	-0.7
CC1=C(C(=O)OC(C)C)C(c2ccccc2)NC(=S)N1 (centres undefined)	2.5	0.3
CSc1ccccc1NC(=O)c1cnn2c(C(F)(F)F)cc(-c3ccco3)nc12	4.0	-0.5
C[C@H]1CN([C@@H](C)CO)C(=O)c2cccc(NC(=O)c3nc4ccccc4s3)c2O[C@@H]1CN(C)C(=O)NC1CCCCC1	5.1	.
COc1ccc2c3c1O[C@H]1C[C@@H](O)C=C[C@@]31CCN(C)C2	-3.9	-0.4
O=S(=O)(Cc1cccc(C(F)(F)F)c1)Cc1cccc(C(F)(F)F)c1	-13.8	-0.1
CCCCN(C)C(=O)C1c2ccccc2C(=O)N(C)C1c1ccc(OC)cc1 (centres undefined)	8.0	.
C[C@@H]1CN([C@H](C)CO)C(=O)c2cc(NC(=O)Cn3cnnn3)ccc2O[C@@H]1CN(C)S(=O)(=O)c1ccc(F)cc1	-0.8	1.1
C[C@@H]1CN([C@@H](C)CO)C(=O)c2cccc(NC(=O)Nc3ccc4c(c3)OCO4)c2O[C@H]1CN(C)Cc1ccc(C(F)(F)F)cc1	-6.7	.
O=C1CSC(=S)N1/N=C/c1cccnc1	-7.8	0.1
C=CCNC(=O)c1cc(=O)c2ccccc2o1	-4.4	0.2
C[C@@H]1CN([C@H](C)CO)C(=O)c2cc(NC(=O)CCCCCC(=O)Nc3ccccc3N)ccc2O[C@@H]1CN(C)S(=O)(=O)c1ccc(F)cc1	-3.5	.
CCOC(CCn1c(SCc2cccc(F)c2)nc2ccccc2c1=O)OCC	-5.4	1.1
O=C(NCCC1=CCCCC1)c1ccc(Cn2c(=S)[nH]c3cc4c(cc3c2=O)OCO4)cc1	-1.3	-1.2
Cc1ccc(S(=O)(=O)N(C)C[C@@H]2Oc3c(NC(=O)C4CCOCC4)cccc3C(=O)N([C@H](C)CO)C[C@@H]2C)cc1	-3.1	.
CCCCc1cc2ccccc2c(OCCN(C)C)n1	6.4	-0.1
C[C@H]1CN([C@@H](C)CO)C(=O)c2cc(NC(=O)Nc3ccc(F)cc3)ccc2O[C@H]1CN(C)S(=O)(=O)c1ccccc1	-6.3	-0.4
COc1ccc(-c2oc3ncn(CCO)c(=N)c3c2-c2ccc(OC)cc2)cc1	-1.6	0.9

In a second layout: 2 of the compounds above.
Order of results – BJeLR viab HTS, A1 inhib
S=C(NC(Cc1ccccc1)c1ccccc1)NC1CC2C=CC1C2 (centres undefined)
→ 8.9, .
COc1ccc(S(=O)(=O)N(C)C[C@@H]2Oc3ccc(NC(=O)NC(C)C)cc3C(=O)N([C@@H](C)CO)C[C@@H]2C)cc1
→ 0.6, -0.3
